Sa ugtP lethal: growth inhibition of S. aureus ugtP deletion strain; S. aureus RN4220 ugtP deletion, OD600 growth, 16 h; some inactives read as strong as hits; growth inhibition, % (no concentration beside the values); 330,000 compounds, 0.54% hits; AID 1259309;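 active means z-score under -3 and OD600 up to 0.15 on both plates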;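 further: plate controls were untreated wells for no effect and antibiotic for full effect; wells of about 80 µL received 100 nL stock; the first replicate is given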
RN4220 kill: kills Staphylococcus aureus RN4220; 330,000 compounds, 0.33% hits; S. aureus RN4220 growth, OD600, 16 h; inhibition, % (concentration not given with the values);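 active means z-score of -3 or lower and OD600 up to 0.18 on both plates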;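 further: plate controls were untreated cells for no effect and reference antibiotic for full effect; stock transfer was 100 nL into about 80 µL; one replicate is shown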
BJeLR viability: BJeLR cell viability loss | 300,000 compounds, 0.17% hits | BJeLR (HRASV12) viability, CellTiter-Glo ATP luminescence, 48 h; reference of the scale not given here | inhibition, % (test concentration not listed);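 active means replicate mean above 50%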;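 further: 50 nL library stock added to about 25 µL; numbers are from one replicate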
Autofluor counter: flagged as autofluorescent in microsphere protease counterscreen | compound autofluorescence counterscreen, microsphere flow cytometry; stronger effect = higher value | fluorescence intensity (concentration not given with the values) | 360,000 compounds, 3.1% hits | AID 624483;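 active means at least 3 SD above the mean of all compounds, about 16000 in these data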;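 further: 100 nL of 1 mM stock went into each well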
PrP 5UTR inh: suppresses PrP 5' UTR mRNA reporter expression; cell-based PrP 5' UTR mRNA reporter, plate reader; inhibition, % (test concentration not listed); 340,000 compounds, 0.35% hits; AID 488862;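 active means every replicate at 50% or more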;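 further: 0 = median of the neutral control wells; tested in H4 reporter cells; numbers are from one replicate; inactives centre near -14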
Mtb hypoxia rep: Mtb hypoxia fluorescent reporter inhibition. M. tuberculosis hypoxia-regulated fluorescent reporter, fluorescence. fluorescence inhibition, % (test concentration not listed). 300,000 compounds, 0.1% hits;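 active means 35 to 45% if threefold the growth effect, above 45% if 1.5-fold the growth effect; inactive means the rest, general growth blockers included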;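 further: wells of about 50 µL received 100 nL stock; 0% = vehicle wells and 100% = reference inhibitor wells; whole bacteria with a GFP reporter of the hypoxia response; strong numbers were not always called active; many hits fall short of the cut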
Mtb hypoxia rep growth: second read-out of Mtb hypoxia rep, no call of its own (marks repeat the call); growth inhibition, %; measured here: M. tuberculosis growth (absorbance);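 0% = vehicle and 100% = reference antibiotic; read after six days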
* = called active by the depositor; x = no result given.

| molecule | PrP 5UTR inh | BJeLR viability | Mtb hypoxia rep | RN4220 kill | Mtb hypoxia rep growth | Sa ugtP lethal | Autofluor counter |
| --- | --- | --- | --- | --- | --- | --- | --- |
| O=C(O)c1cn(-c2ccccc2)c(=O)c2ccccc12 | -18 | -12 | 3 | 3.4 | -2 | 3 | 2861 |
| NS(=O)(=O)c1cccc(NS(=O)(=O)c2ccc(/C=C/C(=O)OCC(=O)c3ccc(Br)cc3)cc2)c1 | 6 | 3 | 10 | 15 | -5 | 8 | 3281 |
| Cc1cccc(-c2oc3ccc(-c4ccc5c(c4)OCO5)cc3c2/C=C/c2ccc(N)cc2)c1 | 5 | -2 | x | x | x | x | 2816 |
| CNC(=O)NNC(=O)c1onc(-c2c(Cl)cccc2Cl)c1C(=O)OC | -22 | -6 | -2 | 3.7 | 0 | 7 | 4669 |
| COc1cc2[nH]c(C(=O)N3CCc4ccccc43)cc2c(OC)c1OC | x | 10 | 4 | 9.0 | 0 | -5 | 3885 |
| CCN(C(=O)COc1ccc2ccc(=O)oc2c1)C1CCCCC1 | -19 | x | 10 | -0.5 | 14 | 0 | 8703 |
| Cc1ccccc1NN=Cc1ccc(C#N)cc1 | x | x | -4 | 4.3 | 1 | 4 | x |
| CCn1c(=O)c(C(=O)NNC(=O)c2ccccc2F)c(O)c2ccccc21 | -6 | -6 | -2 | 16 | -2 | 5 | 4065 |
| Cn1c2c(c(=O)n(C)c1=O)C(c1ccc(F)cc1)C(C#N)=C(N)O2 (stereo not given) | -19 | -4 | 3 | 3.5 | 1 | -1 | 3475 |
| CCN(CC)S(=O)(=O)c1ccc(NN=Cc2cc(OC)ccc2O)nc1 | x | x | 0 | 15 | 2 | 10 | x |
| COCCn1c(SCC(=O)NCCCN2CCCC2=O)nc2sc3c(c2c1=O)CCCC3 | -5 | x | 11 | 3.8 | 0 | 1 | 5391 |
| CC(Cc1ccccc1)NC(=O)Cc1ccc(N(C)C)cc1 (stereo not given) | -10 | -1 | 1 | 0.6 | 4 | 3 | 2467 |
| CCOC(=O)COc1ccc2c3c(c(=O)oc2c1C)CCC3 | -26 | -14 | 7 | -1.4 | 2 | 17 | 4069 |
| COc1ccc(-c2nc(NC(=O)C3CCN(c4nc5ccccc5o4)CC3)sc2C)cc1 | 7 | 0 | -8 | -3.1 | 4 | -4 | 10535 |
| CCn1c(Cc2ccccc2)nnc1SCC(=O)Nc1ccc(N2CCOCC2)c(Cl)c1 | -3 | 0 | x | -3.5 | x | -2 | 5701 |
| CCN1C(=O)C(C)SC1=NS(=O)(=O)c1ccc(Cl)s1 (stereo not given) | x | x | 4 | 32 | 8 | -2 | x |
| CCOC(=O)c1nn(-c2ccc(C)cc2)c(=O)cc1OCC(=O)Nc1ccc(OC)cc1 | -14 | -4 | x | x | x | x | 6864 |
| O=C(Nc1cccc(C(F)(F)F)c1)c1cnc2n(c1=O)CCS2 | -42 | -12 | 4 | -1.1 | 1 | -5 | 5721 |
| O=C(O)COc1ccccc1/C=N/NC(=O)CSc1nc2ccccc2c(=O)n1-c1ccc(Cl)cc1 | -22 | -8 | x | x | x | x | 5457 |
| CC1(C)CN=C(Nc2nc3ccccc3s2)S1 | -16 | 5 | x | 13 | x | 2 | 2790 |
| Cc1ccc(C(=O)OCC(=O)NC(C)c2ccccc2)cc1C (stereo not given) | -7 | x | 10 | 6.3 | 8 | 10 | 6491 |
| COc1cc(C)c(COc2ncnc3ccccc23)cc1OC | -6 | 6 | 1 | -0.1 | -7 | 1 | 5500 |
| Cc1[nH]n2c(=O)cc(Cc3ccccc3)nc2c1C#N | 6 | 12 | x | 1.3 | x | -1 | 4456 |
| COc1cccc(CN=CC2=C(O)CC(C)(C)CC2=O)c1OC | -20 | -6 | 4 | 7.9 | 0 | 0 | 10621 |
| COc1ccccc1N(Cc1ccccc1)S(=O)(=O)c1cccc(C(=O)O)c1 | 1 | -16 | 3 | 14 | 0 | 3 | 2137 |
| COc1ccc(NC(=S)NCc2cccnc2)cc1OC | -8 | -6 | 6 | -0.5 | 6 | 3 | 4501 |
| CC(C)(CCl)C(=O)Nc1ccc(Sc2ccc(F)cc2)cc1 | -41 | -4 | 4 | -9.8 | 9 | -22 | 20739* |
| CCCc1nnc(NC(=O)C2CCN(C(=O)C3CC(=O)N(c4ccc(C)cc4)C3)CC2)s1 (stereo not given) | -11 | -2 | 5 | -0.9 | 13 | 5 | 4639 |
| CSc1nc2sc3c(c2c(=O)n1CC(C)C)CC(C)(C)OC3 | x | -4 | -3 | 2.7 | -1 | 30 | 6153 |
| CC(C)OC(=O)CSc1nnc2n1C(C)(C)Cc1ccccc1-2 | -16 | 6 | 2 | -0.3 | -6 | 0 | 16487* |
| COc1cc2c(cc1OC)CN(CCC(C)c1ccc(Cl)cc1)CC2 (stereo not given) | -8 | -3 | 7 | -11 | 11 | -4 | x |
| CCOC(=O)N1CCC(N2Cc3cccc(C(=O)NCc4ccccc4OC)c3C2=O)CC1 | -3 | -9 | 0 | -8.1 | 5 | 20 | 4798 |
| CC(=NNC(=O)c1cc(C)nc2ccccc12)c1cccs1 | x | x | 5 | 0.1 | 5 | 4 | x |
| O=C(NNC(=O)c1ccccc1O)c1ccc(Cl)cc1 | -73 | 3 | 12 | 0.5 | 3 | 4 | 6750 |
| CC(=O)Nc1nc(C)c(C(C)(C)C)s1 | -12 | 2 | 13 | 2.6 | -5 | -3 | 4533 |
| Cn1ncc([N+](=O)[O-])c1C(=O)Nc1ccc(Cl)cc1 | -13 | 11 | 7 | 0.8 | 5 | 20 | 3120 |
| CC(C)Cc1nnc(NC(=O)C2CC(=O)N(c3ccc4c(c3)OCCO4)C2)s1 (stereo not given) | -16 | x | 0 | -1.4 | 0 | 1 | 3420 |
| COC(=O)c1ccc(NC(=O)COc2ccc(S(=O)(=O)N3CCCCC3)cc2)cc1 | -23 | -9 | 8 | 2.9 | 6 | 1 | 23051* |
| CSCCCNC(=S)Nc1ccc(N2CCOCC2)cc1 | -6 | -3 | 11 | -3.8 | 18 | 3 | 4382 |
| Cc1ccc(NS(=O)(=O)c2cc3c4c(c2)CC(=O)N4CCC3)cc1C | -19 | 2 | 12 | 7.2 | 7 | -2 | 6030 |
| Cn1c(-c2ccccc2)cnc1NCc1cccc([N+](=O)[O-])c1 | -20 | -7 | -10 | -0.6 | 5 | 5 | 3975 |
| Cc1cc(C(=O)NNC(=S)NC2CCCCC2)cs1 | -22 | -7 | 5 | 0.4 | 14 | 2 | 6501 |
| CCCOc1ccc(N2C(=O)CC(N(CCc3ccc(OC)cc3)C(=O)c3cccc(F)c3)C2=O)cc1 (stereo not given) | -2 | -2 | x | -6.2 | x | -4 | 2643 |
| COc1cc(C2C(C(=O)c3cccs3)=C(O)C(=O)N2CCN2CCOCC2)cc(OC)c1OC (stereo not given) | -24 | 3 | 8 | 1.4 | -1 | 6 | 3901 |
| Cc1cc(C)cc(OC2CCCCC2NS(=O)(=O)c2ccccc2)c1 (stereo not given) | -12 | 1 | 6 | 12 | 12 | 10 | 2585 |
| O=C(c1cccc(F)c1)N1CCN(S(=O)(=O)c2ccc(C(F)(F)F)cc2)CC1 | 4 | 3 | 1 | 1.7 | 3 | 5 | 22916* |
| O=C(c1ccc(Cn2cc(Cl)c([N+](=O)[O-])n2)cc1)N1CCN(Cc2ccccc2)CC1 | -13 | -2 | 6 | 2.0 | -5 | 5 | x |
| O=C1NC(=S)SC1=C1CCCC1 | -13 | 11 | x | x | x | x | 3457 |
| COCCn1nnnc1C(c1cc2cc(OC)c(OC)cc2[nH]c1=O)N1CCN(c2ccc(O)cc2)CC1 (stereo not given) | -16 | 4 | 11 | 2.0 | 2 | -4 | 3460 |
| Cc1nc2nc(C)c(CCC(=O)NCCC3=CCCCC3)c(C)n2n1 | -15 | 2 | 7 | 3.9 | 6 | 9 | 11877 |

Profiles from above. Order of screens: PrP 5UTR inh, BJeLR viability, Mtb hypoxia rep, RN4220 kill, Mtb hypoxia rep growth, Sa ugtP lethal, Autofluor counter
Cc1cc(C(=O)NNC(=S)NC2CCCCC2)cs1 as listed: -22, -7, 5, 0.4, 14, 2, 6501
COc1ccc(NC(=S)NCc2cccnc2)cc1OC as listed: -8, -6, 6, -0.5, 6, 3, 4501
CCCc1nnc(NC(=O)C2CCN(C(=O)C3CC(=O)N(c4ccc(C)cc4)C3)CC2)s1 (stereo not given) as listed: -11, -2, 5, -0.9, 13, 5, 4639

Continued:
| molecule | PrP 5UTR inh | BJeLR viability | Mtb hypoxia rep | RN4220 kill | Mtb hypoxia rep growth | Sa ugtP lethal | Autofluor counter |
| --- | --- | --- | --- | --- | --- | --- | --- |
| Cc1cc(=O)n(-c2ccc(O)cc2)[nH]1 | -16 | 2 | 10 | 18 | 7 | 82* | 2332 |
| CCC(=O)c1ccc(OCC(O)Cn2nc(C)cc2C)cc1 (stereo not given) | -25 | -3 | 9 | 2.9 | 5 | 11 | 5501 |
| CN1CCN(CCCNC(=O)Nc2ccc([N+](=O)[O-])cc2)CC1 | -17 | -13 | 12 | -1.5 | 9 | -3 | 3394 |
| COc1ccc(C2Nc3ccccc3C(=O)N2Cc2ccccc2)cc1COc1ccccn1 (stereo not given) | -17 | -2 | 1 | 3.7 | 9 | 18 | 10081 |
| COc1ccc(Cl)cc1-c1nc(-c2ccncc2)no1 | -9 | -12 | x | 2.7 | x | -1 | 4145 |
| CC(NC(=O)COC(=O)c1nc(Cl)ccc1Cl)c1ccccc1 (stereo not given) | -13 | x | 16 | 2.1 | 13 | 7 | 3460 |
| Cc1cc(Br)ccc1OCC(=O)NNC(=O)CCc1ccccc1 | 5 | 8 | 11 | -1.0 | 7 | 3 | 2990 |
| COc1ccc2ccccc2c1/C=N/NC(=O)c1cccc(C)c1 | -21 | 6 | x | x | x | x | 3962 |
| COc1cccc(NC(=O)c2nn(C34CC5CC(CC(C5)C3)C4)cc2[N+](=O)[O-])c1 | 0 | 11 | x | 1.1 | x | -11 | 4710 |
| CC1CN(C(=O)c2ccccc2NS(=O)(=O)c2ccc(Cl)cc2)CC(C)O1 (stereo not given) | -16 | x | -13 | 0.7 | 1 | -16 | 3730 |
| Cc1ccccc1N=CC=C1OC(C)(C)C(C)(C)O1 | -15 | 4 | -5 | -6.2 | 0 | -6 | 7466 |
| O=C(CN1C(=O)C2C3c4ccccc4C(c4ccccc43)C2C1=O)N1CCOCC1 (stereo not given) | -26 | -5 | -2 | 1.1 | -1 | -1 | 8647 |
| Cc1cc(C(=O)NC2CCCCCC2)c2ccccc2n1 | -1 | x | 13 | -1.2 | 11 | 0 | 2953 |
| CCOC(=O)N1CCN(C(=O)CCc2nc3sc4c(c3c(=O)[nH]2)CCCC4)CC1 | -15 | -3 | 11 | 4.1 | 11 | 9 | 3709 |
| CC1(C)CC(NS(=O)(=O)OCC(Cl)(Cl)Cl)c2cc(C#N)ccc2O1 (stereo not given) | -10 | 10 | 0 | 99* | 2 | 99* | 2758 |
| CC(=O)NCCC(=O)NCC1(N(C)Cc2ccccc2)Cc2ccccc2C1 | -50 | -4 | -3 | 2.2 | 13 | 5 | 3402 |
| CC(=O)Nc1nc2ccc(C(=O)NC3CCCCC3)cc2s1 | -48 | x | x | 5.7 | x | -6 | 4982 |
| CN(Cc1cn(C)c2ccccc12)C(=S)Nc1cc(F)cc(F)c1 | 1 | -5 | -4 | -4.1 | -10 | 0 | 2338 |
| CC(=O)C1=C(O)C(=O)N(c2ccc(Br)cc2)C1c1ccc(Br)cc1 (stereo not given) | -23 | -4 | 5 | 3.2 | 10 | -9 | 3616 |
| Cc1ccc(-c2cc(-c3ccccc3)nc(Cl)n2)cc1 | -14 | 2 | 10 | 4.9 | -2 | 9 | 7259 |
| COc1ccccc1NC(=S)N1CCNC(=O)C1CC(=O)Nc1cccc(C)c1 (stereo not given) | -26 | 1 | -1 | 15 | 2 | 2 | 4977 |
| Cc1ccc(NC(=O)CSc2nnc(-c3ccco3)n2N)cc1F | -13 | 6 | 3 | 3.0 | -9 | 1 | 4256 |
| CC1CCc2[nH]c3ccc(C(=O)NCC4CCCO4)cc3c2C1 (stereo not given) | -53 | x | 16 | 0.3 | 5 | -4 | 5846 |
| O=C(c1nn(Cc2ccccc2)c(=O)c2ccccc12)N1CCN(c2ccccn2)CC1 | -2 | 7 | 14 | -1.8 | 12 | 4 | 3950 |
| COc1ccc(C(=O)Nc2nc(C)c(C(C)=O)s2)cc1S(=O)(=O)N1CCOCC1 | x | x | 9 | 3.8 | 6 | 1 | x |
